Compound activity (PubChem)
Sa ugtP lethal = growth inhibition of ugtP-null S. aureus, primary screen, RN4220 ugtP deletion, OD600; 16 h; some inactives read as strong as hits; growth inhibition, % (test concentration not listed); 330,000 tested, 0.54% active; AID 1259309, 2017;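 active = z-score under -3 and OD600 up to 0.15 on both plates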;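 note: plate controls were untreated wells for no effect and antibiotic for full effect; wells of about 80 µL received 100 nL stock; the first replicate is given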
Mtb hypoxia inh = PubChem AID 1159583. M. tuberculosis hypoxia-regulated fluorescent reporter, fluorescence. fluorescence inhibition, % (test concentration not listed). 300,000 tested, 0.1% active;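 active = 35 to 45% if threefold the growth effect, above 45% if 1.5-fold the growth effect; inactive = the rest, general growth blockers included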;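 note: wells of about 50 µL received 100 nL stock; 0% = vehicle wells and 100% = reference inhibitor wells; whole bacteria with a GFP reporter of the hypoxia response; strong numbers were not always called active; many hits fall short of the cut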
BJeLR lethal = MLPCN primary cell-based screen for lethality selective to Ras in HRASV12 cells. inhibition, % (concentration not given with the values). 300,000 tested, 0.17% active. AID 1554, 2009. BJeLR (HRASV12) viability, CellTiter-Glo ATP luminescence, 48 h; reference of the scale not given here;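 active = replicate mean above 50%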;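 note: 50 nL library stock added to about 25 µL; numbers are from one replicate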
PrP 5UTR inh = inhibition of PrP 5' UTR reporter expression. cell-based PrP 5' UTR mRNA reporter, plate reader. inhibition, % (concentration not given with the values). 340,000 tested, 0.35% active. AID 488862, 2010;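 active = every replicate at 50% or more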;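 note: 0 = median of the neutral control wells; tested in H4 reporter cells; numbers are from one replicate; inactives centre near -14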
RN4220 kill = growth inhibition of S. aureus RN4220, primary screen, OD600 | 16 h | inhibition, % (test concentration not listed) | 330,000 tested, 0.33% active | AID 1259311, 2017;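 active = z-score of -3 or lower and OD600 up to 0.18 on both plates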;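 note: plate controls were untreated cells for no effect and reference antibiotic for full effect; stock transfer was 100 nL into about 80 µL; one replicate is shown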
Bead autofluor = counter-screen for toxin protease inhibitors: compound fluorescence; AID 624483; 360,000 tested, 3.1% active; compound autofluorescence counterscreen, microsphere flow cytometry; active compounds read high; fluorescence intensity (concentration not given with the values);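 active = at least 3 SD above the mean of all compounds, about 16000 in these data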;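 note: 100 nL of 1 mM stock went into each well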
Mtb hypoxia inh growth = also measured in Mtb hypoxia inh; calls as there; growth inhibition, %; measured here: M. tuberculosis growth (absorbance);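 0% = vehicle and 100% = reference antibiotic; read after six days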
* = called active by the depositor; . = not tested or not shown. Rows are unselected. Share with any hit: about 4%.

SMILES | Sa ugtP lethal | Mtb hypoxia inh | Mtb hypoxia inh growth | BJeLR lethal | PrP 5UTR inh | RN4220 kill | Bead autofluor
CC(C)CC(NC(=O)C(COCc1ccccc1)NC(=O)OC(C)(C)C)C(=O)NN (configuration not stated) | -1 | -7 | 4 | 3 | -10 | -2.1 | 4330
Cc1cccc(-c2nc(CN3CCN(C(=O)C4CCCO4)CC3)cs2)c1 (configuration not stated) | 15 | 8 | 2 | -1 | -10 | 5.2 | 4748
O=S(=O)(Nc1ccccn1)c1cccs1 | -1 | -16 | 1 | 0 | -6 | -0.8 | 4570
O=C(NCc1cccc(C(F)(F)F)c1)C1CC(c2cccc(F)c2)=NO1 (configuration not stated) | 5 | 6 | 5 | -3 | -23 | 4.9 | 3517
CCCc1ccc(C(=O)NC(=O)c2ccccc2O)cc1 | -8 | -5 | -2 | 17 | -27 | 5.5 | .
Cc1cccc(C)c1NC(=O)C1NC(=O)CC1c1ccccc1 (configuration not stated) | -1 | . | . | -5 | 0 | 4.1 | 4260
CC(C)(C)c1nn2cnnc2n(/N=C/c2ccc(O)cc2)c1=O | . | . | . | -7 | -13 | . | 2298
CCN(CC)S(=O)(=O)c1cc(C)ccc1SC | 2 | 10 | -2 | 1 | -28 | 0.6 | 8793
CC1CCN(C(=O)c2ccc(NS(=O)(=O)c3cccs3)cc2)CC1 | 8 | 2 | 5 | -8 | -13 | 1.7 | 5459
O=C(Nc1cc(=O)[nH]c(=O)[nH]1)c1cc(Cl)ccc1Cl | . | . | . | 19 | -13 | . | 5315
CCCC1=Nc2cc(C(=O)N3CCC(C(N)=O)CC3)ccc2Sc2ccccc21 | 11 | 1 | -4 | -5 | -9 | 7.2 | 4252
C=CCNCCCCOc1c(Cl)cc(C)cc1Br | -7 | 14 | 7 | 4 | -10 | 2.6 | .
COCCSc1nnc(NC(=O)C2CC(=O)N(c3ccccc3)C2)s1 (configuration not stated) | 5 | 1 | -4 | 1 | 47 | 1.6 | 3210
Nc1nnc(CC(=O)NN=Cc2ccc([N+](=O)[O-])cc2)s1 | 2 | 2 | 4 | . | . | 6.2 | .
CCCC1=C(C(=O)OCC)C(c2ccco2)C(C#N)=C(N)O1 (configuration not stated) | 8 | -4 | 2 | -5 | -10 | 12 | 4569
COc1cc2nc(CN3CCOCC3)n(CC(=O)NCC(F)(F)F)c(=O)c2cc1OC | 6 | -5 | -5 | 5 | 1 | 1.2 | 4421
COc1ccc(Br)cc1C(=O)NC(=S)Nc1cc(-c2nc3ccccc3[nH]2)ccc1C | -21 | 8 | 1 | 3 | -14 | 1.3 | 2492
NC(=O)C1CCN(C(=O)/C(=C/c2ccccc2)NC(=O)c2ccccc2)CC1 | 5 | 1 | 5 | 5 | -9 | 5.2 | 4087
CCN(C[C@H]1N[C@@](C)(C(=O)OC)[C@H]2C(=O)N(C)C(=O)[C@@H]12)C(=O)Nc1ccc(C(F)(F)F)cc1 | 1 | -5 | 0 | . | -9 | 1.3 | 2890
CC1(C)CC(=O)C=C(NCc2ccncc2)C1 | 12 | 15 | 3 | -3 | -18 | 5.7 | 16666*
Cc1ccc(NC(=O)C2C3C=CC4(O3)C2C(=O)N(CCCN2CCOCC2)C4C(=O)NC2CCCCC2)cc1Cl (configuration not stated) | 0 | 0 | -10 | -16 | -8 | 2.8 | 3958
COc1ccc(C2(CNC(=O)/C=C\c3ccco3)CCCC2)cc1OC | 2 | 3 | 5 | 6 | -2 | -4.1 | 9390
COC(=O)[C@@]1(Cc2ccccc2)[C@@H]2C(=CC(=O)[C@H]2CC(=O)C(=O)N(C)C)CN1C(=O)c1ccccc1 | . | . | . | -8 | 6 | . | 3702
NC(N)=NS(=O)(=O)c1ccc(NC(=S)NC(=O)/C=C/c2ccccc2)cc1 | 5 | -7 | 10 | -4 | 5 | 2.8 | 4497
CCN1CCN(C(CNS(=O)(=O)c2ccc(C)cc2)c2ccccc2)CC1 (configuration not stated) | 2 | 12 | 17 | -2 | -3 | 0.5 | 5499
Cc1ccc(C(=O)Oc2cccnc2)cc1[N+](=O)[O-] | 10 | 13 | 9 | -1 | -7 | 4.0 | 2090
Oc1ccc2ccc3[nH]cnc3c2c1 | . | . | . | 0 | -15 | . | 4283
C=CCn1c(O)c(N=NC(=O)CNC(=O)c2ccncc2)c2ccccc21 | 1 | 8 | 19 | 5 | -32 | 1.3 | 4452
CCN(CC)S(=O)(=O)c1ccc2[nH]c(=O)[nH]c2c1 | 3 | -68 | 5 | 1 | -9 | 3.6 | 8788
Cc1noc(C)c1S(=O)(=O)N1CCCC(C(=O)Nc2ccc(Cl)cn2)C1 (configuration not stated) | 7 | . | . | 9 | -11 | -1.9 | 4916
CCOC(=O)CNC(=O)C(CC(N)=O)NC(=O)OC(C)(C)C (configuration not stated) | -4 | -3 | 9 | 1 | . | -0.3 | .
O=C(Cn1cc(C(F)(F)F)ccc1=O)NN=Cc1ccc(Cl)c(Cl)c1 | 1 | 6 | 8 | . | . | 2.3 | .
O=C(Nc1ccccc1N1CCN(C(=O)c2ccc(Cl)cc2)CC1)c1cccc([N+](=O)[O-])c1 | -5 | 1 | 5 | -6 | -9 | -0.2 | 6147
FC(F)(F)Oc1ccc(NC(=S)NCc2ccccc2)cc1 | -8 | 7 | -2 | -2 | 1 | -7.5 | 1992
CS(=O)(=O)Nc1ccc(C(=O)NCCSCc2ccco2)cc1 | 1 | . | . | -2 | -10 | 3.0 | 4927
Cc1c(C)c2ccc(OC3CCCCC3=O)cc2oc1=O (configuration not stated) | 0 | 3 | 1 | -14 | -31 | 1.5 | 4015

Pulled by compound from the list above, 4 records:
SMILES | Sa ugtP lethal | Mtb hypoxia inh | Mtb hypoxia inh growth | BJeLR lethal | PrP 5UTR inh | RN4220 kill | Bead autofluor
Cc1c(C)c2ccc(OC3CCCCC3=O)cc2oc1=O (configuration not stated) | 0 | 3 | 1 | -14 | -31 | 1.5 | 4015
CCN1CCN(C(CNS(=O)(=O)c2ccc(C)cc2)c2ccccc2)CC1 (configuration not stated) | 2 | 12 | 17 | -2 | -3 | 0.5 | 5499
O=C(Nc1ccccc1N1CCN(C(=O)c2ccc(Cl)cc2)CC1)c1cccc([N+](=O)[O-])c1 | -5 | 1 | 5 | -6 | -9 | -0.2 | 6147
Oc1ccc2ccc3[nH]cnc3c2c1 | . | . | . | 0 | -15 | . | 4283

The list continues:
SMILES | Sa ugtP lethal | Mtb hypoxia inh | Mtb hypoxia inh growth | BJeLR lethal | PrP 5UTR inh | RN4220 kill | Bead autofluor
Cc1cccc(N2C(=O)CC(N(C(=O)c3ccco3)c3cccc(C)c3)C2=O)c1 (configuration not stated) | -8 | 0 | 3 | -6 | 2 | -4.9 | 17561*
C=CCOc1cccc(/C=N/NC(=O)C(OC)c2ccccc2)c1 (configuration not stated) | . | . | . | -11 | -23 | . | 3908
COc1ccc(CNC(=O)CCC(=O)n2ncc3cc(C)ccc32)cc1 | 14 | 3 | 7 | 6 | -9 | 10 | 5119
O=C1NCCCC2c3c(cc(Br)c(O)c3Br)OC12N1CCCCC1 (configuration not stated) | 6 | -7 | -6 | 9 | 0 | 17 | 3042
Cn1c(C(=O)NCCC2=CCCCC2)cc2c(=O)n3ccccc3nc21 | 4 | 10 | 12 | 0 | -66 | 4.6 | 9349
O=C(Nc1cc([N+](=O)[O-])ccc1Cl)C(Sc1ccccc1)c1ccccc1 (configuration not stated) | -15 | -7 | 8 | -6 | -24 | -6.2 | 2446
COc1cccc(-c2noc(C3CCCN(C(=O)c4cccc(F)c4)C3)n2)c1 (configuration not stated) | 2 | 0 | 8 | 3 | -17 | 3.6 | 3754
Cc1cccc(N2CC(C(=O)Nc3nnc(SCc4cccnc4)s3)CC2=O)c1 (configuration not stated) | -7 | 0 | 8 | 4 | -28 | 1.0 | 6206
Cn1c(=O)[nH]c(=O)c2[nH]c(N(Cc3ccccc3)Cc3ccccc3)nc21 | 15 | . | . | . | 12 | 13 | 3888
CCOC(=O)c1c(C)n(C)c2ccc(OC)c(NS(=O)(=O)CC)c12 | 3 | 4 | 3 | 3 | -10 | 4.4 | 2301
CC(=O)NNc1ccc(C(F)(F)F)cc1[N+](=O)[O-] | 0 | 1 | 2 | 3 | -11 | 2.7 | 11079
CCOC1CC(C)(C)NC(=S)N1 (configuration not stated) | 1 | 7 | 0 | -3 | -11 | 5.6 | 2544
Oc1c(Br)cc(C=NNC(=S)NCc2ccco2)cc1Br | 13 | 6 | -3 | . | . | 26 | .
OC1CCCN(CC(O)COC(c2ccc(F)cc2)c2ccc(F)cc2)C1 (configuration not stated) | 6 | -4 | 4 | -9 | -34 | -0.2 | 3464
C=C(C)CN(CC)Cc1c(C(=O)N(C)CCCC)nc2ccccn12 | 11 | 4 | 11 | 7 | -21 | 4.5 | 3467
NC(=O)C1CCN(CC(=O)Nc2ccc(S(=O)(=O)N3CCOCC3)cc2)CC1 | 8 | 2 | -6 | -12 | -7 | -3.9 | 2928
CN(CC1COCCO1)c1nc2nonc2nc1N1CCSCC1 (configuration not stated) | 8 | 5 | 4 | -2 | -16 | 4.5 | 2677
COc1ccc(CSc2cccc3cccnc23)cc1[N+](=O)[O-] | 17 | 12 | 8 | 4 | -34 | 41 | 2110
CCOC(=O)c1c(C)[nH]c(/C(C)=N/O)c1C | . | . | . | 4 | -5 | . | 3432
O=[n+]1c2c(n([O-])c3cc(F)ccc31)CCCC2 | 7 | . | . | 0 | -23 | 3.0 | 2653
O=[N+]([O-])c1ccc(Nc2nc(N/N=C\c3ccc4c(c3)OCO4)nc(N3CCCCC3)n2)cc1 | . | . | . | 5 | -20 | . | 8888
COC(=O)C1=C(c2cccc(OC)c2OC)C[C@@H]2CC[C@H]1N2C(=O)N1CCCC1 | . | . | . | 0 | -26 | . | 3605
Oc1c(Br)cc(Br)cc1/C=N/c1nc2c(s1)CCCC2 | . | . | . | -13 | -8 | . | 3212
Cc1ccc(CS(=O)Cc2ccc(C(=O)NCc3ccccc3)o2)cc1 (configuration not stated) | 5 | 6 | 7 | -15 | -22 | 1.2 | 4977
CCn1c(CSc2ncn[nH]2)nc2cc(C(=O)O)ccc21 | 14 | -1 | 6 | 3 | -15 | 2.9 | 4162
CC(C)c1cc(C(=O)N2CCCC(CCC(=O)NCc3ccccc3F)C2)n(C)n1 (configuration not stated) | 7 | 13 | 8 | -27 | -16 | 9.6 | 6423
Cc1ccccc1-n1c(=O)n(Cc2ccccc2)c(=O)c2[nH]cnc21 | 2 | -1 | -6 | 3 | -10 | 1.3 | 4263
O=C(Nc1cccc(O)c1)c1cc(-c2ccco2)on1 | -7 | 2 | 0 | -3 | -46 | 4.5 | 10311
O=S(=O)(N1CCCCC1)n1c(Cc2ccccc2)nc2ccccc21 | 3 | 2 | 3 | -1 | -15 | 7.7 | 8344
O=C(CSc1nnc(Cc2ccsc2)o1)c1ccccc1 | 6 | 1 | -2 | -5 | . | -0.5 | .
COc1ccc(NC(C)=O)cc1NC(C)C(=O)Nc1cccc2ccccc12 (configuration not stated) | -3 | 8 | 11 | -18 | -7 | 2.5 | 2788
Cc1ccc(OCCn2c(=O)cnc3ccccc32)cc1 | 6 | . | . | 4 | -13 | 8.8 | 2829
O=C(NNC(=O)c1ccc(=O)[nH]c1)c1ccc(NS(=O)(=O)c2cccs2)cc1 | 0 | 8 | -5 | . | -24 | 0.7 | 4140
CCOc1ccccc1N1CC(C(=O)Nc2ccc(C(=O)O)cc2)CC1=O (configuration not stated) | -1 | 10 | 13 | -3 | -11 | -5.5 | 3532
CCCCC(=O)Nc1nnc(CCc2ccccc2)s1 | 0 | -2 | -1 | -6 | -28 | 4.7 | 4545
Cc1ccc(N2C(=O)C(Cl)=C(N3CCCCCC3)C2=O)cc1 | 11 | 9 | -6 | -12 | -10 | 2.2 | 3187

A draw from above in order of number of heavy atoms, rising:
SMILES | Sa ugtP lethal | Mtb hypoxia inh | Mtb hypoxia inh growth | BJeLR lethal | PrP 5UTR inh | RN4220 kill | Bead autofluor
Oc1ccc2ccc3[nH]cnc3c2c1 | . | . | . | 0 | -15 | . | 4283
O=S(=O)(Nc1ccccn1)c1cccs1 | -1 | -16 | 1 | 0 | -6 | -0.8 | 4570
O=C(CSc1nnc(Cc2ccsc2)o1)c1ccccc1 | 6 | 1 | -2 | -5 | . | -0.5 | .
Cc1noc(C)c1S(=O)(=O)N1CCCC(C(=O)Nc2ccc(Cl)cn2)C1 (configuration not stated) | 7 | . | . | 9 | -11 | -1.9 | 4916
